Source: PubChem BioAssay (several laboratories)
FGF22 binding: shifts melting point of recombinant human FGF22; Q9HCT0; recombinant FGF22 thermal shift, SYPRO orange fluorescence; percent of sucrose octasulfate shift, DMSO zero; calls only at 9.99 µM; 340,000 tested, 1.5% active; AID 651658;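 active = melting point raised past a set limit in the mean and every replicate; inconclusive = no clear call; three in four hits are not shown here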
Target sequence (Q9HCT0 whole entry, looked up): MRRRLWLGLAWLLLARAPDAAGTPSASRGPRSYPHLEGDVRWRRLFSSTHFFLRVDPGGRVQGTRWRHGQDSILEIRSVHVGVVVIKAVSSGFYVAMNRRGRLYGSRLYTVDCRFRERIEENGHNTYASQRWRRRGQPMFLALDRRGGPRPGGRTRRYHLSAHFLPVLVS
ALR inh: blocks human ALR sulfhydryl oxidase activity. P55789. purified ALR, DTT oxidation, H2O2 HRP-luminol luminescence. inhibition, % (no concentration beside the values). 290,000 tested, 3.8% active. AID 485317;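 active = mean and each replicate at 75% or more; inconclusive = only one of the two met; inactive = neither met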;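 also: stock transfer was 7.5 nL into about 7.5 µL; 0% = neutral wells and 100% = wells with inactivated enzyme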
LANA-H2A inh: blocks KSHV LANA binding to histone H2A/H2B; Q9QR71; cell-free LANA-H2A/H2B peptide, fluorescence polarization; inhibition, % (concentration not given with the values); 320,000 tested, 0.6% active; AID 2629; in the data active = inhibition mostly above about 10%, no sharp cut-off; inactive = mostly below about 6.7%;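 also: stock transfer was 7.5 nL into about 10 µL; 0% = median of vehicle wells and 100% = median of positive control wells; one replicate is shown; the record names a cut of 25% in any replicate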
E coli growth: E. coli growth inhibition; Escherichia coli growth, OD600, 23 h; hits give low values; OD600 absorbance (test concentration not listed); 330,000 tested, 0.21% active; AID 1053175;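 active = OD600 absorbance below the run mean of sample wells minus 3.6 SD, in any replicate, cut at about 0.56 in these data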;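 also: stock transfer was 300 nL into about 60 µL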
Beta2AR agonist: human beta-2 adrenergic receptor agonism by FAP; P07550; Am2.2-beta2AR cells, FAP receptor internalization, flow cytometry; reference of the scale not given here; response, % (no concentration beside the values); 340,000 tested, 0.43% active; AID 504454;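 active = response above a set limit, near 3 SD of response in nonfluorescent compounds, cut at about 42% in these data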;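 also: stock transfer was 100 nL into about 11 µL; a reference agonist was the positive control; negative values mostly stem from fluorescent compounds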
Target sequence (P07550 whole entry, looked up): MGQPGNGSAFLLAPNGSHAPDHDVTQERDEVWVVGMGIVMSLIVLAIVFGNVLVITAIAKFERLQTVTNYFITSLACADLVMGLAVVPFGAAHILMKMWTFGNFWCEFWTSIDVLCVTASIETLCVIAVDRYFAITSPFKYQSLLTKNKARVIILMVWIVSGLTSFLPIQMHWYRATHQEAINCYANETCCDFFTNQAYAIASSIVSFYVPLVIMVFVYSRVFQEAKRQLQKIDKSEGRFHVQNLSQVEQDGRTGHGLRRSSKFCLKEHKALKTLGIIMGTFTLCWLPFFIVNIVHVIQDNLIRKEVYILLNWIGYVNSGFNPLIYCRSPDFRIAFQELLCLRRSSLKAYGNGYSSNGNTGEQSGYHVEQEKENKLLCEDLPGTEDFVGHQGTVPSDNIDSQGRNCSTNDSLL
UCH37 inh: blocks the human deubiquitinase UCH37 | 330,000 tested, 0.33% active | purified proteasome/UCH37, Ub-AMC cleavage fluorescence | inhibition, % (concentration not given with the values) | AID 588478 | Q9Y5K5;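 active = mean of two replicates above 20%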;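 also: 0% = compound-free wells with enzyme and 100% = wells lacking proteasome; stock transfer was 100 nL into about 20 µL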
Target sequence (Q9Y5K5 whole entry, looked up): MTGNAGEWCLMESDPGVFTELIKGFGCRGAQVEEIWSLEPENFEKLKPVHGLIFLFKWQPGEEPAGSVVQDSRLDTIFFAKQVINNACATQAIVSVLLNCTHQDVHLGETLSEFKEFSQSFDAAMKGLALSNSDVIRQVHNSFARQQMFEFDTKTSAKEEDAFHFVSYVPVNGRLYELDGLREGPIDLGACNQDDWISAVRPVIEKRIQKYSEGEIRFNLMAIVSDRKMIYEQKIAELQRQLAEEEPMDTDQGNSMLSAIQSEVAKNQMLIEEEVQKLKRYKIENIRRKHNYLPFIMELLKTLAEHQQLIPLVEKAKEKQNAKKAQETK
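Material: human UCH37 enzyme supplied as purified proteasome complex. Measure: % inhibition of Ub-AMC cleavage fluorescence. Medium: pH 7.4 Tris-HCl (50 mM) with ovalbumin, ATP-MgCl2, DTT. Times: 30 min preincubation with enzyme, 25 min cleavage at room temperature. Detection: AMC fluorescence intensity at 355/460 nm.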
HNF4A DNA FP: change in binding of human HNF4 alpha to DNA; HNF4a-FITC DNA binding, fluorescence polarization, 1 h; activity change, % at 10 µM; 360,000 tested, 0.3% active; P41235; in the data active = activity change above about 30%, passing the limit was not always enough;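 also: controls were the assay level and a saturating level of protein; the project sought stronger binding though the title names inhibitors; some compounds called inactive have numbers as strong as hits; positive values seem to mean higher polarization but the record does not say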
Active calls of the source: *; i = inactive; ? = inconclusive; · = not tested or not shown. These rows are one share of the data; the hit share may differ from the screen's.

compound,FGF22 binding,ALR inh,LANA-H2A inh,E coli growth,Beta2AR agonist,UCH37 inh,HNF4A DNA FP
O=C(c1ccc2c(=O)n3c(nc2c1)CCC3)N1CCCSC1=Nc1ccccc1,i,11.0,-0.8,0.726,-12.8,1.2,2.6
CCCCCC(=O)Nc1ccc(N2CCN(C(=O)c3ccccc3)CC2)cc1,·,3.1,0.8,0.741,-2.7,3.1,2.7
Cc1ccc(S(=O)(=O)N2CCN(C(C)C(=O)NCC(C)c3ccccc3)CC2)cc1 (stereo unspecified),i,-7.6,-3.3,0.669,-2.8,1.7,3.6
O=C(CN1CCCCCC1)N/N=C/c1ccc2ccccc2c1,i,18.5,0.4,·,10.7,·,-3.0
COc1ccc(C(=O)Nc2c(C(C)(C)C)nn(C)c2C(C)(C)C)cc1,i,1.5,1.3,0.689,-2.8,1.9,1.6
C/C(CCC(C)C)=N\Nc1ccc(S(N)(=O)=O)cc1[N+](=O)[O-],i,-4.2,-0.8,·,-4.5,·,-0.7
O=C(CCc1ccc(O)c(O)c1)N/N=C/c1ccc2c(c1)OCO2,i,95.1*,5.8,·,6.9,·,-2.5
Cc1csc(=O)n1CC(=O)OCC(=O)NNC(=O)c1ccccc1,i,-3.4,0.4,0.741,2.5,2.0,-0.4
FC(F)(F)c1cc(-c2ccc3c(c2)OCO3)nc(NCc2ccco2)n1,·,-5.7,1.9,0.703,-6.9,-45.2,1.0
O=C(CCS(=O)(=O)c1ccccc1)Nc1ccc2c(c1)OCO2,i,-6.2,2.5,0.717,0.9,0.3,-5.5
COc1ccc(CCNC(=O)CNC(=O)c2nn(-c3ccc(OC)c(OC)c3)c(=O)c3ccccc23)cc1OC,i,-4.1,1.7,0.662,16.3,5.0,3.4
COc1cc(C(=O)Nc2ccc(-n3cnnn3)c(C)c2)cc(OC)c1OC,·,-2.2,1.9,0.636,13.2,1.9,3.8
NC(=O)C(=O)N/N=C1\CCc2ccccc21,i,·,-5.4,·,3.1,·,-0.2
Cn1c(=O)n(CCc2ccccc2)c(=O)c2c1ncn2Cc1ccccc1,·,-6.6,1.5,0.686,-9.4,1.4,0.2
CC(O)[C@H]1CNCCN1CC1(c2ccccc2)CC1 (stereo partly specified),i,-0.4,-3.2,·,1.7,8.7,1.2
COc1ccc(NC(=O)c2cccc(NS(=O)(=O)c3ccccc3)c2)cc1,i,-6.2,5.8,0.702,1.6,3.2,-2.6
CSc1nc(N)nc(SCC(=O)CC(=O)OC(C)C)c1C#N,·,1.6,4.6,0.726,11.5,2.6,3.0
COc1ccc(C(=O)CCS(=O)(=O)c2ccc(C)cc2)cc1,i,12.7,5.0,0.642,2.8,1.1,-0.4
O=C1NC(=S)N/C1=C/c1cccnc1,i,9.0,4.0,0.701,7.8,4.3,2.7
Cc1nc2ccccc2c(=O)n1NC(=O)c1ccccc1,i,-10.2,11.2,0.655,-2.4,-1.6,0.1
COc1cccc(OC)c1OCCN1CCN(C(=O)c2ccco2)CC1,·,-7.0,1.8,0.656,-4.0,-1.1,-1.2
CC(C)(C)c1ccc(C(=O)N2CCC(C(=O)N3CCCCC3)CC2)cc1,i,·,3.6,0.698,6.3,-1.3,1.9
COc1ccc(C(=O)Nc2ccc(Cl)c(Cl)c2)c(OC)n1,·,-0.3,9.9,0.777,-4.7,0.2,0.4
CC(=O)Sc1nc(-c2ccccc2)[nH]c1S(=O)(=O)c1ccc(C)cc1,·,9.6,-5.0,0.699,·,6.3,·
Cc1ccc(Cl)cc1N1CCN(S(=O)(=O)c2c(C)[nH]c(C)c2C(=O)N2CCCCC2)CC1,i,-3.2,-3.9,0.731,1.9,1.0,-2.3
COc1ccccc1C(=O)NC(CCSC)C(=O)NCCCSc1ccccc1 (stereo unspecified),i,-15.0,-0.1,0.712,-2.9,2.8,-1.0
CC(C)(C)SCCNC(=O)CSCc1ccc([N+](=O)[O-])cc1,·,-17.9,-0.4,0.68,3.4,1.7,3.1
O=C(NN1CC(C(=O)OCc2ccc(Cl)cc2Cl)CC1=O)c1ccccc1 (stereo unspecified),i,-19.6,-8.7,0.703,4.7,2.4,-1.6
O=C(c1nc2ccc(Cl)cn2c1CN1CCCC1)N1CCc2ccccc2C1,i,0.3,8.5,·,-2.5,·,-22.1
CC1CCN(S(=O)(=O)c2ccc(S(=O)(=O)NCC(=O)C(C)(C)C)cc2)CC1,·,1.7,-2.8,0.627,-5.4,0.6,2.1

compound,FGF22 binding,ALR inh,LANA-H2A inh,E coli growth,Beta2AR agonist,UCH37 inh,HNF4A DNA FP
COc1ccc(/C=C/C(=O)Nc2c(C)nn(C)c2C)cc1COc1ccc(Br)cc1,·,2.6,-2.7,0.609,10.5,-0.5,5.3
O=S(=O)(Cc1ccccc1Cl)NCCc1ccc(F)cc1,i,0.1,2.5,0.698,0.0,4.7,-2.8
O=C(CSc1nnc(CCc2ccccc2)n1-c1ccc(Cl)cc1)NCc1ccccc1,·,-13.4,-2.1,·,-11.1,·,0.8
Cc1ccccc1NC(=S)NNc1ncc(C(F)(F)F)cc1Cl,·,3.5,-7.3,0.768,-1.3,-2.1,-0.1
CC1CCC(NC(=O)c2ccc(NC(=O)CC3SC(N4CCCC4)=NC3=O)cc2)CC1 (stereo unspecified),i,-7.2,-8.7,0.704,2.0,0.5,1.8
O=C(NCCCn1ccnc1)c1cc(S(=O)(=O)N2CCOCC2)ccc1F,i,-13.0,6.4,0.736,0.8,2.2,6.8
O=C1c2ccccc2-c2nnc(-c3ccc(O)cc3)cc21,i,-35.9,1.2,0.689,-3.1,0.0,0.2
C#CCOCCOCCOCCNc1nc(N2CCOCC2)nc(N2CCN(C(=O)Cn3cc(CC(C)O)nn3)CC2)n1 (stereo unspecified),i,-6.7,3.6,·,8.1,-0.8,4.4
CS(=O)(=O)Nc1ccccc1N=C(c1ccccc1)c1ccccc1,i,·,-8.8,0.696,-9.9,1.3,-1.6
NC(=O)c1nsnc1-c1ccccc1O,·,-14.0,0.7,·,11.6,·,1.6
COc1ccc(CC(=O)N2N=C(C)CC2(O)C(F)(F)F)cc1OC (stereo unspecified),i,-5.5,-0.4,0.712,-2.1,-0.2,-2.9
Cc1ccc(OCCC(=O)Nc2ccc(C)c(F)c2)cc1,i,0.0,-1.7,0.667,1.0,0.2,1.7
CC(C(=O)Nc1ccc(S(=O)(=O)N2CCCC2)cc1)N1CCN(c2ccccc2O)CC1 (stereo unspecified),i,?,-2.0,0.701,5.4,3.2,1.4
C=CC1=C2C=C(C3CC3)N(CC3CC3)C=C2C(=O)C(C)(OC(=O)c2ccco2)C1=O (stereo unspecified),i,-8.1,4.0,0.685,-0.7,-0.4,-2.8
c1cncc(-c2nc(N3CCOCC3)c3c4c(sc3n2)CCC4)c1,·,51.2,5.1,0.689,-5.9,-70.9,0.0
CC(OC(=O)c1cc(Br)ccc1O)C(=O)Nc1ccc(S(=O)(=O)N2CCCC2)cc1 (stereo unspecified),i,-4.8,4.3,·,30.9,·,0.0
Cc1csc(SCC(=O)NCc2ccccc2Cl)n1,i,1.6,-3.2,0.688,5.0,3.7,2.4
COc1ccc(C(=O)c2ccc(Br)cc2)c2ccccc12,i,-3.3,3.9,0.684,-1.6,1.2,2.1
C=CCNC(=O)N1CCCC(C(=O)c2cccc(OC(C)C)c2)C1 (stereo unspecified),i,·,-0.3,0.716,-10.6,1.0,-1.7
COC(=O)c1ccc(C2C(C(=O)c3ccco3)=C(O)C(=O)N2c2cc(C)on2)cc1 (stereo unspecified),i,18.1,2.6,0.717,-0.1,12.3,3.2
CCOC(=O)Cc1cn2c(=O)cc(CSCC(=O)Nc3ccc(C)c(C)c3)nc2s1,·,·,1.7,0.744,-5.3,3.3,-3.7
COc1cccc(NC(=O)C(=S)NC2CCCCC2)c1,i,-5.4,-2.2,0.694,0.9,4.8,13.9
Cc1ccc(NS(=O)(=O)c2cccc(C(=O)N3CCN(C(=O)c4ccco4)CC3)c2)cc1,i,-7.7,-0.3,0.671,0.1,3.6,2.4
CC(C)N=C(NC#N)SCC(=O)NC(C)(C)C,·,-4.3,0.0,0.76,0.9,4.1,0.4
CC(=O)N(C)c1ccc(C=C2C=Cc3ccccc32)cc1,i,·,·,·,8.0,·,3.6
Cc1ccc(/C=N/N=C/c2ccc(C)cc2)cc1,i,·,3.6,·,3.6,·,3.5
N#Cc1ccccc1NC(=O)Nc1ccccc1,i,-0.7,6.1,0.725,-5.1,-224.0,-3.1
CC(=O)Nc1ccc(S(=O)(=O)NCc2ccc(C(=O)NCc3ccc(Cl)cc3)cc2)cc1,i,1.7,1.2,0.719,6.1,7.1,-0.3
O=C(/C=C/c1ccco1)NCc1ccc2c(c1)OCO2,i,30.7,-1.5,0.695,-4.8,2.9,2.6
CC1CC(C)CN(CCCNC(=O)CN2C(=O)c3cccnc3Oc3ccc(Cl)cc32)C1 (stereo unspecified),i,-2.7,-1.8,0.682,8.3,1.5,0.3

compound,FGF22 binding,ALR inh,LANA-H2A inh,E coli growth,Beta2AR agonist,UCH37 inh,HNF4A DNA FP
CC(C)CN1C(=O)NC(NC(=O)c2cccs2)(C(F)(F)F)C1=O (stereo unspecified),·,·,-1.0,0.673,5.3,4.3,-4.2
O=S(=O)(N/N=C1/CC(c2ccccc2)Oc2ccccc21)c1ccccc1 (stereo unspecified),i,·,·,0.711,-19.7,6.0,2.3
CCOc1ccc(NC(=O)CC2C(=O)N(c3ccc(OC)cc3)C(=O)N2CCc2ccc(OC)c(OC)c2)cc1 (stereo unspecified),i,-6.3,-1.4,0.67,18.8,-0.6,-2.1
Nc1ccc2nc(CCCCCCc3nc4ccc(N)cc4[nH]3)[nH]c2c1,·,57.3,1.0,0.681,13.3,-1.0,-9.9
COc1ccc(/C=N\n2nnc3ccccc32)cc1,·,-7.9,-3.3,·,4.9,·,-4.4
O=C(NCc1ccccn1)C(=O)Nc1ccccc1,i,-1.0,-0.7,0.666,3.8,2.5,1.0
CN(CC1COCCO1)c1nc2nonc2nc1N1CCSCC1 (stereo unspecified),i,1.4,-2.3,0.698,-10.2,7.0,-0.5
CN(C)S(=O)(=O)Nc1ccc(Br)cc1F,·,-3.1,2.0,0.715,-2.8,0.4,5.9
C[C@@H](C(=O)Nc1ccc2c(c1)OCO2)n1c(=O)[nH]c2ccccc2c1=O,i,-12.9,5.1,0.68,8.3,6.0,-6.2
COc1ccc(-c2noc(-c3ccoc3C)n2)cc1,i,-9.7,7.9,0.669,4.3,-1.4,-1.2
O=C(C1CC(=O)N(c2ccc(Cl)cc2)C1)N1CCC(c2nc3ccccc3[nH]2)CC1 (stereo unspecified),i,·,·,0.68,-0.7,3.1,-0.2
CCCCN(C(=O)CSc1ncn[nH]1)c1c(N)n(Cc2ccccc2)c(=O)[nH]c1=O,i,1.8,13.3,0.712,0.4,2.0,3.5
COc1cc(NC(=S)NCc2ccco2)cc(OC)c1,·,·,0.3,0.749,1.5,4.9,5.5
O=C(CSc1n[nH]c(=O)n1-c1ccccc1)Nc1ccccc1,i,-2.8,-2.3,0.646,8.0,2.4,5.0
O=C(CC1(O)C(=O)Nc2ccccc21)c1cccc(-n2cccc2)c1 (stereo unspecified),i,-14.5,5.4,0.636,10.4,3.2,-1.3
Cc1sc2ncnc(SCC(=O)NCC3CCCO3)c2c1C (stereo unspecified),i,-3.8,1.3,0.673,-3.3,0.4,2.1
COc1ccccc1OC(C)C(=O)N1CCc2ccccc21 (stereo unspecified),i,-7.4,0.8,0.703,-3.3,3.3,-1.1
CCn1nnnc1SCC(=O)N(C1CCCCC1)C1CCCCC1,·,-7.1,-0.9,0.72,-2.5,1.2,-0.3
